Assay outcomes (PubChem BioAssay)
Resorufin autofl: qHTS Assay for Spectroscopic Profiling in Resorufin Spectral Region. max dye-equivalent concentration, M. hit rate 0.04% among 59,000. Compound fluorescence, resorufin region 547/598 nm, buffer; active compounds read high; active = above 10 nM dye equivalent; inconclusive = 1 to 10 nM; inactive = 1 nM or less; a few of its hits are not listed in these tables; also: highest value over a series up to 38 µM
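Read-out: intrinsic compound fluorescence at ex 547/em 598 nm after 15 min at RT in pH 8.0 Tris (100 mM). Values expressed as resorufin-equivalent concentration from per-plate standard series.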
AID923: qHTS Assay for Allosteric/Competitive Inhibitors of Caspase-1: Spectroscopic Profiling in AFC Spectral Region; compound fluorescence, AFC spectral region (405/520 nm); almost no hit is shown here; Potency, µM (titrated, usually from 57.5 µM), for inactives: top-dose fluorescence increase, usual class: activators; hit rate 1.1% among 75,000; AID 923, 2007; active = well fitted activation curve with a large enough effect; inconclusive = small, poorly fitted or top-dose-only effect;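 also: potency is read from the fitted curve at half-maximal effect; 0% is about no effect; scaled to a free AFC standard on each plate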
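Compound autofluorescence profiled at 405 nm ex/520 nm em during kinetic caspase 1 run (50 nM enzyme, 5 uM Ac-WEHD-AFC, HEPES pH 7.5, 10 mM DTT). Titration up to 57 uM; baseline from regression intercept, normalized to AFC standard curve.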
TSHR ag: qHTS Assay for Agonists of the Thyroid Stimulating Hormone Receptor. hit rate 0.48% among 73,000. Potency, µM (doses to about 57.1 µM), for inactives: at the highest dose activation, actives largely listed as activators. HEK293-CNG-TSHR cells (CNG channel as cAMP sensor), membrane potential dye, cAMP; active = well fitted activation curve of enough size with the parental cells flat; inconclusive = any curve in the parental cells; inactive = parental cells flat and receptor cells flat or falling; also: potency is read from the fitted curve at half-maximal effect; % of control where 0% means no effect; weak receptor curves with flat parental cells got no call and are not listed
Target sequence (P16473 whole entry, looked up): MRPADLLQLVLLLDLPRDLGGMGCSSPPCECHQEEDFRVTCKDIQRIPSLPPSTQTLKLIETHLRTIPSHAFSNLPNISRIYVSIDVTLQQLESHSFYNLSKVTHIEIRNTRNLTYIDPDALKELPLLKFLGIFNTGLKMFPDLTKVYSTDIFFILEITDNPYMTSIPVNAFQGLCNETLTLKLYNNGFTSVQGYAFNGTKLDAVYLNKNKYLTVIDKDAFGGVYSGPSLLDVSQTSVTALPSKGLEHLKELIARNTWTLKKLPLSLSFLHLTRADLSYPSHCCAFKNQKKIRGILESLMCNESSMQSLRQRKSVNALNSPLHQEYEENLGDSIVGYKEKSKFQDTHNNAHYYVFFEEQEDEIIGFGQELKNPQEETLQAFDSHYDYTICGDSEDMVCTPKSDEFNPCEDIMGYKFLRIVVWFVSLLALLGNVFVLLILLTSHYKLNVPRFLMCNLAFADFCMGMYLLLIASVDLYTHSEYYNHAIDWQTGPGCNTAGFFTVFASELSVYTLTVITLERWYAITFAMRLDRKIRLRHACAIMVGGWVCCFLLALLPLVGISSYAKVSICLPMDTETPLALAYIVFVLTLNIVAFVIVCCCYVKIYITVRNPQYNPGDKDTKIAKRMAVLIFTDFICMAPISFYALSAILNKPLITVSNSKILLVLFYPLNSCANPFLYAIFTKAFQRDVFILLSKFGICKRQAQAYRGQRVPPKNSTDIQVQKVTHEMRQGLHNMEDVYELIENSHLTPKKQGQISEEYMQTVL
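HEK 293 cells stably expressing TSHR and a modified CNG channel, with CNG-only parental cells as counterscreen, were preloaded 60 min at room temperature with membrane potential dye containing 100 uM RO 20-1724. Compound exposure was 30 min, and depolarization was read as fluorescence at 590 nm.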
A647 autofl: qHTS Assay for Spectroscopic Profiling in A647 Spectral Region; AID 592, 2007; 59,000 tested, under 10 active; Compound fluorescence, A647 channel (570/671 nm), Tris buffer; max dye-equivalent concentration, M; active means above 1 µM dye equivalent; inconclusive means 0.1 to 1 µM; inactive means 0.1 µM or less;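 also: values scaled relative to a standard on each plate; highest value over a series up to 38 µM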
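Fluorescence read (570 nm ex, 671 nm em) after 15 min RT incubation of compounds in 100 mM Tris buffer, pH 8.0; values expressed as dye-equivalent concentration against a six-point A647 standard series on each plate.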
A488 autofl: qHTS Assay for Spectroscopic Profiling in A488 Spectral Region | max dye equivalency, M | compound autofluorescence, A488 spectral region, dye equivalency; active compounds read high | hit rate 0.1% among 59,000; active = above 10 nM dye equivalent; inconclusive = 1 to 10 nM; inactive = 1 nM or less; about half of its hits are not listed in these tables;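 also: highest value over a series up to 38 µM; compound alone in buffer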
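Compound autofluorescence was read in 100 mM Tris pH 8.0 after 15 min at room temperature, ex 480 nm/em 540 nm. Intensities were converted to A488 dye-equivalent concentration using an on-plate six-point A488 standard curve.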
* = called active by the depositor; i = inactive; ? = inconclusive; · = not tested or not shown; & = joins results of further samples; [ ] = remark or other dose. This is a subset; count on the stated rates, not on these rows.

SMILES,Resorufin autofl,AID923,TSHR ag,A647 autofl,A488 autofl
CNC(=O)CC(C(=O)O)c1ccc(OC(C)C)cc1 (centres undefined),i,·,·,8.9e-08,i
CCOc1ccccc1NC(=O)Cn1cnc2c(cnn2-c2ccc(C)c(C)c2)c1=O,i,-1.5%,11%,5.6e-09,i
CC1=CC(=C2C(=O)c3ccccc3C2=O)C=C(C)O1,i,15%,-15%,5.9e-09,i
CC1CCc2c(sc(N)c2C(N)=O)C1 (centres undefined),·,1.0%,-17%,·,·
O=C(Nc1ccn(Cc2ccc(Cl)cc2)n1)c1ccc2c(c1)OCO2,i,0.5%,24%,1e-09,i
N#CC(C(=O)CCN1C(=O)C2CC=CCC2C1=O)c1nc2ccccc2[nH]1 (centres undefined),i,0.5%,-17%,1.6e-08,i
O=S1(=O)N=C2CCCCCN2C(c2ccncc2)N1 (centres undefined),i,-0.2%,1%,5.6e-09,i
COc1ccccc1NC(=O)c1cc(S(=O)(=O)N2CCC3(CC2)OCCO3)ccc1F,i,-1.0%,27%,8.9e-09,i
CCCCOc1ccc(Cl)cc1CSc1nnc(CC)n1N,i,3.1%,19%,1.5e-08,i
CCN1CCN(c2nc(SC)nc3sc4c(c23)CC(C)(C)OC4)CC1,i,3.0%,19%,1e-09,i
Cc1cc(C)n(-c2ccc(C(=O)NC3=NCCS3)cc2)n1,i,0.8%,-3%,4.4e-08,i
O=C(NCCN=C1NS(=O)(=O)c2ccccc21)c1ccc(S(=O)(=O)N2CCOCC2)cc1,i,-1.4%,-15%,5.6e-09,i
CCC(=O)Nc1cccc(NC(=O)c2ccc3c(c2)OCO3)c1,i,-1.2%,-5%,7.4e-09,i
Nc1c(N2CCCCC2)c(=O)[nH]c(=O)n1-c1ccccc1,i,0.9%,-1%,1e-09,i
CCN1CCN(C(=O)CN(C)S(=O)(=O)c2ccc(OC)cc2)CC1,i,-1.5%,6%,3.9e-09,i
Cc1cccc(-n2c(CCN3C(=O)c4ccccc4C3=O)nc3ccccc3c2=O)n1,i,5.4%,8%,1.1e-08,i
Cc1cc(C)n2nc(Nc3ccccc3)cc2n1,i,-0.9%,-12%,2.5e-09,i
N#Cc1c(NC(=O)CSCC(=O)O)sc2c1CCCC2,i,0.8%,1%,3.3e-09,i
CSc1cccc(NC(=O)C2CCCN(S(=O)(=O)c3ccc(F)cc3)C2)c1 (centres undefined),i,-2.0%,-27%,2.7e-08,i
NCCC[C@H](N)CC(=O)N[C@H]1CNC(=O)[C@@H]([C@@H]2C[C@H](O)N=C(N)N2)NC(=O)/C(=C/NC(N)=O)NC(=O)[C@@H](CO)NC(=O)[C@@H](CO)NC1=O,i,1.4%[25.7 µM],-3%[25.6 µM],4.6e-09,i
O=C(NCCN1C(=O)C2C3C=CC(C3)C2C1=O)Nc1ccccn1 (centres undefined),·,1.5%,4%,·,·
CCOc1ccccc1NC(=O)CSc1nc2cccnc2n1C,i,-1.4%,?,3.6e-08,i
O=C(CN1CCC(n2nnc3cc(F)ccc32)CC1)Nc1ccc2c(c1)CCC2,i,1.1%,13%,3.6e-09,i
Cc1nc2cnc(Nc3ccccc3)nc2n(C2CC2)c1=O,i,18%,-2%,7e-09,i
CCOC(=O)c1[nH]nc2c1C(=O)N(CC)C2=O,i,0.7%,3%,2.6e-08,i
O=C(CSc1nnc(COc2ccccc2)o1)NCCc1ccccc1,i,0.7%,20%,1e-09,i
O=C(O)c1sccc1S(=O)(=O)Nc1ccccc1N1CCCCC1,·,0.6%,28%,·,·
CC1Cc2cc(/C(O)=C3/C(=O)C(=O)N(CCN4CCOCC4)C3c3cccc(O)c3)ccc2O1 (centres undefined),i,1.3%,-3%,1e-09,i
Cc1ccc(NC(=O)c2cc(-c3ccco3)on2)cc1C,i,0.2%,0%,9.5e-09,i
COc1ccc(/C(O)=C2\C(=O)C(=O)N(Cc3ccco3)C2c2cc(OC)ccc2OC)cc1 (centres undefined),i,·,·,1e-09,i
O=C(Nc1cccc(Cl)c1Cl)c1ccncc1,·,-1.5%,2%,·,·
CC(Sc1ccc2ccccc2n1)C(=O)O (centres undefined),i,·,·,4.9e-09,i
O=C(CN1C(=O)c2ccccc2C1=O)Nc1nnc(C2CCCO2)s1 (centres undefined),i,0.3%,?,5.5e-09,i
CCOc1ccc(-c2nnc(SCc3nnc(-c4ccccc4)o3)n2-c2ccccc2F)cc1,i,-0.8%,?,2.3e-09,i
CCC(C)C(=O)N1CCc2cc(-c3csc(N)n3)ccc21 (centres undefined),i,1.4%,-9%,1e-09,i
COc1ccc(NC(C)=O)cc1NC(=O)CN1CCN(S(=O)(=O)c2ccc(C(C)C)cc2)CC1,i,0.8%,11%,2e-09,i
C=C(CC(=O)OC)C[C@]1(CC(=O)OC)CC2(CC=C(C)C)C(=O)C(C(=O)c3ccccc3)=C(OC(=O)c3ccc(Br)cc3)C(CC=C(C)C)(C1)C2=O (some centres undefined),·,-2.0%[11.5 µM],6%[11.4 µM],·,·
CCSc1ccccc1C(=O)Nc1cc(C)on1,i,-2.1%,17%,3.6e-08,i
Cc1cccc(C)c1NC(=O)CS(=O)CC(=O)NC1CCN(Cc2ccccc2)CC1 (centres undefined),i,-0.3%,-2%,2.3e-08,i
Cc1cc(Nc2cccc(Cl)c2C)n2ncnc2n1,·,-1.3%,3%,·,·

Quoted from the listing:
Under A647 autofl, CC1=CC(=C2C(=O)c3ccccc3C2=O)C=C(C)O1 has the entry 5.9e-09
Under AID923, CCN1CCN(c2nc(SC)nc3sc4c(c23)CC(C)(C)OC4)CC1 has the entry 3.0%

Next part:
SMILES,Resorufin autofl,AID923,TSHR ag,A647 autofl,A488 autofl
Cc1ccc(-c2nc(NC(=O)CSc3nnc(C)s3)ns2)cc1,·,-1.1%,?,·,·
COc1ccc(-c2ccc(SCC(=O)NCc3ccco3)nn2)cc1,i,0.6%,?,9e-09,i
O=C(CC12CC3CC(CC(C3)C1)C2)NCO,·,-0.5%,3%,·,·
COC(=O)c1ccccc1S(=O)(=O)N(CCCO)Cc1cc2c(C)ccc(C)c2[nH]c1=O,i,1.1%,0%,1.5e-09,i
CCc1cccc(NC2c3ccccc3C(=O)N2c2ccc(C)cn2)c1 (centres undefined),·,-0.3%,29%,·,·
O=C(c1ccc(F)cc1)C1CCN(C(=O)N2CCOCC2)CC1,i,-1.5%,8%,7.6e-09,i
Cc1nnc(NC(=O)c2ccc3c(c2)C(=O)N(CC2CCCO2)C3=O)s1 (centres undefined),i,-0.4%,?,1e-09,i
CCn1cc(C2=NOC(C(=O)Nc3c(C)nn(Cc4ccc(F)cc4)c3C)C2)c(C)n1 (centres undefined),·,0.2%,?,·,·
CCCNc1nc2c(c(=O)[nH]c(=O)n2C)n1Cc1ccc(F)cc1,·,4.9%,-3%,·,·
Cc1cc(C(=O)CC#N)c(C)n1CC(F)(F)F,i,2.2%,2%,3.5e-08,i
Clc1ccccc1-c1nn2c(Cn3cnc4ccccc43)nnc2s1,i,0.2%,3.2µM*,6.5e-09,i
O=C(Nc1ccc(Cl)cc1)N1CCC(c2nc(-c3cccs3)no2)CC1,i,-0.6%,?,1.2e-08,i
CCOC(=O)C1CCCN(C2CC(=O)N(c3cccc(C(F)(F)F)c3)C2=O)C1 (centres undefined),i,-2.7%,2%,3.3e-08,i
O=C(NC1CCCCC1)C1CCN(c2nnnn2-c2ccccc2)CC1,i,0.5%,-3%,3.3e-08,i
COC(=O)c1cn(NC(=O)c2ccncc2)c(=O)c2ccccc12,i,-0.5%,1%,6.8e-09,i
C=CCn1c(=O)/c(=C/c2ccc(F)cc2)s/c1=C(\C#N)c1nnc2n1CCCCC2,i,3.4%,·,2.4e-08,i

2 of these compounds, set out differently.
Order of values – Resorufin autofl | AID923 | TSHR ag | A647 autofl | A488 autofl
- CCOC(=O)C1CCCN(C2CC(=O)N(c3cccc(C(F)(F)F)c3)C2=O)C1 (centres undefined)
 : i | -2.7% | 2% | 3.3e-08 | i
- Cc1cc(C(=O)CC#N)c(C)n1CC(F)(F)F
 : i | 2.2% | 2% | 3.5e-08 | i

(further entries)
SMILES,Resorufin autofl,AID923,TSHR ag,A647 autofl,A488 autofl
CCN(CCCNC(=O)CCn1c(=O)[nH]c2ccccc2c1=O)c1ccccc1,i,1.2%,-5%,1e-09,i
COc1ccc(N2CCN(Cc3nc(-c4ccc(Cl)cc4Cl)no3)CC2)cc1,i,-4.3%,0%,6.2e-09,i
CC(NC(=O)C1CCCN(S(=O)(=O)c2cnc[nH]2)C1)c1ccccc1 (centres undefined),·,5.1%,1%,·,·
O=C(c1csc2c1CCCC2)N1CCN(c2ccccc2)CC1,i,-0.1%,2%[11.4 µM],2.5e-08,i
COc1cc(OC)c(C(=O)Nc2ccc(S(=O)(=O)Nc3ncccn3)cc2)cc1OC,i,-0.6%,-4%,3e-08,i
COCCn1nnnc1C(c1cccs1)N1CCN(c2nc3ccccc3s2)CC1 (centres undefined),i,-4.1%,13%,3.1e-08,i
O=C(c1ccccc1)N(c1ccccc1)C1C=CS(=O)(=O)C1 (centres undefined),i,0.8%,18%,7.1e-09,i
COC(=O)c1ccccc1NC(=O)Nc1cc(C)cc(C)n1,i,1.9%,-14%,1e-09,i

Of the compounds above, three have a furan ring, fused or not.
SMILES,Resorufin autofl,AID923,TSHR ag,A647 autofl,A488 autofl
Cc1ccc(NC(=O)c2cc(-c3ccco3)on2)cc1C,i,0.2%,0%,9.5e-09,i
COc1ccc(/C(O)=C2\C(=O)C(=O)N(Cc3ccco3)C2c2cc(OC)ccc2OC)cc1 (centres undefined),i,·,·,1e-09,i
COc1ccc(-c2ccc(SCC(=O)NCc3ccco3)nn2)cc1,i,0.6%,?,9e-09,i

Continuation:
SMILES,Resorufin autofl,AID923,TSHR ag,A647 autofl,A488 autofl
COc1cc(S(=O)(=O)N2CCCCC2)ccc1NC=O,·,-3.6%,0%,·,·
Clc1cccc(Nc2c3c(nc4ncnn24)CCC3)c1,i,0.0%,?,4.1e-08,i
Cn1c(=O)cc(OCC(=O)Nc2ccccn2)c2ccccc21,i,-0.6%,-2%,1.6e-08,i
c1ccc(CN2CCC3(CCCc4ccccc43)CC2)cc1,i,-4.7%,?,4.7e-08,i
CCn1c(NCc2cc(OC)ccc2OC)nc2ccccc21,i,2.4%,5%,2.1e-08,i
CCOC(=O)c1ccc2c(c1)nc(SCC(=O)N1CCCCC1)n2CC,i,-1.7%,3%,5.7e-09,i
Cc1cccc(OCC(O)CN2C(C)(C)CC(O)CC2(C)C)c1 (centres undefined),i,-2.4%,29%,2.9e-08,i
CCC(C)NC(=O)CN(c1ccc2c(c1)OCO2)S(=O)(=O)c1c(C)n[nH]c1C (centres undefined),·,-2.1%,5%,·,·
O=C(O)Cc1nn(Cc2ccc(Br)cc2F)c(=O)c2ccccc12,·,-2.8%,16%,·,·
c1cnc2c(c1)ccc1cccnc12,i,-1.5%,?,1e-09&1e-09,i
CC(C(=O)N1CCN(C=O)CC1)N1C(=O)c2ccccc2C1=O (centres undefined),i,-1.4%,·,7.8e-09,i
C=CCNC(=O)Nc1ccc(OCC)cc1,i,0.2%,4%,1.9e-08,i
CCSc1cc(C2C(C#N)=C(N)OC(C)=C2C(=O)OC)c(C)o1 (centres undefined),i,-0.5%,48%,1e-09,i
O=C(NC1CCN(Cc2ccccc2)CC1)C1CCCN(c2nnc(-n3cccc3)s2)C1 (centres undefined),·,0.7%,4%,·,·
CC(=O)Nc1ccccc1-c1ccc(C)o1,i,4.2%,1%,8.8e-09,i
